# Screens (PubChem)
# VDR inh = Inhibitors of the vitamin D receptor (VDR): qHTS; Vitamin D3 receptor (Homo sapiens), P11473; hit rate 0.93% among 400,000; Potency, µM, inactives show max response, negative = inhibition, usual class: inhibitors; VDR-SRC2-3 peptide fluorescence polarization, 2 h; AID 504847, 2011; active = well fitted inhibition curve with a large enough effect; inconclusive = small, poorly fitted or top-dose-only effect, or another doubt; inactive = no such curve, though single readings can be large or run the other way; also: series mostly up to about 120 µM
# Target sequence (P11473 whole entry, looked up): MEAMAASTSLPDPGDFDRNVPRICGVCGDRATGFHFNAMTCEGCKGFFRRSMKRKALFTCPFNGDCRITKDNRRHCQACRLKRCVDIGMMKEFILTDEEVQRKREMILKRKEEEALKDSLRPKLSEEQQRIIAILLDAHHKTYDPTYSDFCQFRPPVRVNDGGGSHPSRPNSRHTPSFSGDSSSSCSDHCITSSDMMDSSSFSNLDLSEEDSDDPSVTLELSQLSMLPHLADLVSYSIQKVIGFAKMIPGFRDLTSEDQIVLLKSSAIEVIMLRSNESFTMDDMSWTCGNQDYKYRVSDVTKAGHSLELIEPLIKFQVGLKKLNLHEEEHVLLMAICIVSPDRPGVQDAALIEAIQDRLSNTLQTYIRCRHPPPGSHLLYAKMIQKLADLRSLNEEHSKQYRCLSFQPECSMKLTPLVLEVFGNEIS
#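 After 23 nl compound addition and a short centrifugation, plates sat for 2 hours at ambient temperature; polarization of fluorescence then indicated loss of VDR binding to peptide SRC2-3.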
# * hit, by the source's call; ? = inconclusive; & = joins results of further samples. % is scaled to controls: 0 for no effect and ±100 for the full control effect; potency is read from the fitted curve at half-maximal effect. Not all compounds are listed, so the mix of outcomes need not match the whole.
SMILES,VDR inh
CSc1nc2nc(-c3cccs3)cc(C(F)(F)F)c2c(=O)[nH]1,-6.6%
CCC(CO)Oc1cc(NC(=O)c2cccc([N+](=O)[O-])c2)c2ncn(C(C)C)c2c1 (stereo not drawn),-16.7%
Cc1ccccc1NC(=O)CSC1=Nc2ccccc2C2=NC(CCC(=O)NCc3ccccc3)C(=O)N12 (stereo not drawn),-7.6%
Cc1oc(CC(C)C)c(CN)c1C(=O)O,-0.6%
COC(=O)[C@H](C)NC(=O)N1CCC(Cc2ccccc2)CC1,-4.8%
CCCn1c2ccccc2c2cnn(CC(=O)O)c(=O)c21,-7.8%
CC(Sc1nnc(-c2ccccc2Br)n1-c1cccc(C(F)(F)F)c1)C(N)=O (stereo not drawn),-7.3%
S=C(NCCc1ccccc1)N1CCN(C2CCCCC2)CC1,-2.2%
COc1ccc(C(=O)N[C@H](C(=O)Nc2ccc(OC)nc2)C(C)C)cc1,-7.9%
COc1ccc(CCNC(=O)CC2Nc3ccccc3NC2=O)cc1OC (stereo not drawn),15.8%
CCCCC[C@H](O)CC(=O)CCc1ccc(O)c(OC)c1,1.2%&-8.0%
O=C(c1cccc(C(=O)N2CCN(c3ccccc3F)CC2)c1)N1CCN(c2ccccc2F)CC1,13.5%
COc1cc(C(=O)N2CCN(c3ccccc3)CC2)c([N+](=O)[O-])cc1OC,0.2%
COc1ccccc1NC(=O)c1ccc2c(c1)CCN2S(C)(=O)=O,-17.4%
Cc1cc(C(=O)OCC(=O)c2cccs2)c2ccccc2n1,2.1%
Nc1nc(Cl)nc2c1ncn2[C@@H]1O[C@H](CO)[C@@H](O)[C@H]1O,2.2%&-12.2%&18.2%&-8.1%
O=C(COc1ccc(Cl)cc1)NCCCNC(=O)c1cccnc1,-5.0%
CC(C)(C)OC(=O)N/N=C/c1cccn1-c1ccc([N+](=O)[O-])cc1,-3.8%
Cc1cc(F)ccc1S(=O)(=O)N1CCCOC1CNC(=O)C(=O)NCCCN1CCOCC1 (stereo not drawn),13.5%
Cc1cc(Nc2ccc(F)c(Cl)c2)n2ncnc2n1,?
CCOc1ccc(NC(=O)CCN2C(=S)NC(C)(C)CC2C)cc1 (stereo not drawn),-14.8%
CC(C)(C)OC(=O)n1cc(CCO)c2ccccc21,-17.0%
O=C1CCC(c2ccc3ccccc3c2)O1 (stereo not drawn),-1.9%
CC12CCC=CC1C(c1ccoc1)N(Cc1ccccc1)C2=O (stereo not drawn),-4.1%

# Retrieved one by one from the entries so far (four):
SMILES,VDR inh
CC(C)(C)OC(=O)n1cc(CCO)c2ccccc21,-17.0%
O=C1CCC(c2ccc3ccccc3c2)O1 (stereo not drawn),-1.9%
O=C(COc1ccc(Cl)cc1)NCCCNC(=O)c1cccnc1,-5.0%
Cc1cc(Nc2ccc(F)c(Cl)c2)n2ncnc2n1,?

# New compounds follow:
SMILES,VDR inh
COc1ccccc1NS(=O)(=O)c1cc(C(=O)N2CCN(C/C=C/c3ccccc3)CC2)ccc1C,-14.2%
COc1ccc2nc(NC(=O)C3CCCN(S(=O)(=O)c4c(C)noc4C)C3)sc2c1 (stereo not drawn),-20.1%
COc1ccc(C)cc1S(=O)(=O)N(C)CC(=O)NC1CCCCC1,-0.7%
Nc1nnc(Sc2ncccc2[N+](=O)[O-])s1,-23.3%
COc1ccc(CNC(=O)c2ccc(CNS(=O)(=O)c3ccc(OC)cc3)cc2)cc1,-26.7%
COc1cc(/C=N/N=C(/N)c2nonc2N)cc(Br)c1OCc1cccc(C)c1,-1.9%
CCn1cc([N+](=O)[O-])c(C(=O)Nc2cc(C)on2)n1,8.0%
COc1ccccc1C(=O)Nc1nc2cc3c(cc2s1)OCCO3,-13.4%
COc1ccc(-c2nnc(SCCc3ccccc3)n2N)cc1,3.0%
COc1cc(/C=C/c2nc3cc(Cl)ccc3c(=O)n2-c2cccc(C(F)(F)F)c2)cc(OC)c1OC,12.2%
CCCCc1nc2cc(C(=O)N3CCN(c4cnccn4)CC3)ccc2o1,13.1%
CCN(CCNC(=O)CN1CCN(Cc2ccc(Cl)cc2)C1=O)c1ccccc1,20.8%
Cc1ncoc1C(=O)NCCC(c1ccccc1)c1ccccc1,-26.3%
CCCCC(=O)NC(=S)NNC(=O)CC,-9.1%
CCOc1ccc(CNC(=O)Cn2cc3c(n2)-c2c(oc(C(=O)N4CCCC4)c2C)CC3)cc1,5.0%
COc1ccc(OC)c(Nc2ncnc3c2cnn3-c2ccccc2)c1,24.2%
NC(c1ccccc1)c1cccnc1 (stereo not drawn),-13.4%
Fc1ccc([C@@H]2CCNC[C@H]2COc2ccc3c(c2)OCO3)cc1,-13.7%&-14.3%&-16.8%&10.2%&-4.4%
O=C(CCn1cnnn1)Nc1cc(C(F)(F)F)cc(C(F)(F)F)c1,-0.5%
Cc1ccccc1N(C)C(=O)c1noc2c1COc1ccccc1-2,10.5%
CN(C)CCNC(=O)c1cc2ccccc2oc1=O,5.8%
O=C(NCCSCc1ccc(Cl)cc1Cl)c1ccc(CN2CCOCC2)cc1,9.4%
Cc1nn(CCCNC(=O)C2CCCO2)cc1Br (stereo not drawn),0.0%
CC(C)Cc1cc(C(=O)Nc2sc3c(c2C#N)CCCC3)no1,-21.8%

# For reference, four of the compounds above.
SMILES,VDR inh
Cc1ncoc1C(=O)NCCC(c1ccccc1)c1ccccc1,-26.3%
CCCCC(=O)NC(=S)NNC(=O)CC,-9.1%
CCOc1ccc(CNC(=O)Cn2cc3c(n2)-c2c(oc(C(=O)N4CCCC4)c2C)CC3)cc1,5.0%
COc1ccc(OC)c(Nc2ncnc3c2cnn3-c2ccccc2)c1,24.2%

# Back to the main list, starting seven compounds before the break.
SMILES,VDR inh
Fc1ccc([C@@H]2CCNC[C@H]2COc2ccc3c(c2)OCO3)cc1,-13.7%&-14.3%&-16.8%&10.2%&-4.4%
O=C(CCn1cnnn1)Nc1cc(C(F)(F)F)cc(C(F)(F)F)c1,-0.5%
Cc1ccccc1N(C)C(=O)c1noc2c1COc1ccccc1-2,10.5%
CN(C)CCNC(=O)c1cc2ccccc2oc1=O,5.8%
O=C(NCCSCc1ccc(Cl)cc1Cl)c1ccc(CN2CCOCC2)cc1,9.4%
Cc1nn(CCCNC(=O)C2CCCO2)cc1Br (stereo not drawn),0.0%
CC(C)Cc1cc(C(=O)Nc2sc3c(c2C#N)CCCC3)no1,-21.8%
COc1ccc(NC(=O)Nc2sc3nc4n(c(=O)c3c2C)CCC(C)CC4)cc1OC (stereo not drawn),-0.3%
COc1ccc(S(=O)(=O)N2CC3CCCN3c3ccc(C(F)(F)F)cc32)cc1 (stereo not drawn),-10.7%
Clc1ccc(Nc2ncnc3ccc(Br)cc23)cc1,-5.0%
COc1ccc(/C=C/C(=O)NC(=S)Nc2ccc(Br)cn2)cc1,-13.4%
CCOC(=O)c1c(C)oc2c1c(CN1CCN(CCO)CC1)c(O)c1ccccc12,?
COc1ccc(CC(C)Nc2ccccc2F)cc1 (stereo not drawn),-5.3%
CC(/C=N/NC(=O)CCn1nnc2ccccc21)=C\c1ccccc1,-0.4%
Cc1ccc(C)c(NC(=O)Cn2c(=O)n(-c3ccccc3C)c(=O)c3c2c2cc(C)ccc2n3C)c1,10.5%
COc1cc(N)c2ncccc2c1Cl,5.2%
CCC(=O)N1COC[C@@H]1Cc1ccccc1,-17.1%
CCN1CCN(c2cc(C)c3cc(NC(=O)c4cc(Cl)ccc4OC)ccc3n2)CC1,-8.1%
CSc1cccc(NC(=O)CCn2c(=O)c3cccn3c3cccnc32)c1,-4.4%
Cc1c(Cl)cn2c(=O)cc(CN3CCN(c4ccccc4)CC3)nc2c1Cl,23.8%
O=c1c(-c2ccc(F)cc2)coc2cc(O)ccc12,9.2%
CC(=O)Nc1ccc2nc(NC(=O)c3cccs3)sc2c1,4.2%
C/C(=N\NC(=O)Cc1ccc(Cl)cc1)c1ccccn1,4.9%
COc1ccc(CNC(=O)Cn2nnc(-c3ccc(S(C)(=O)=O)cc3)n2)cc1,-19.7%
COc1ccc(S(=O)(=O)NCc2ccccn2)cc1NC(=O)c1ccccc1F,-16.6%
CN(C)S(=O)(=O)c1ccc(C(=O)N2CCN(S(=O)(=O)c3cccs3)CC2)cc1,12.3%
O=C(Nc1ccc(F)c(Cl)c1)N1CC=C(c2c[nH]c3ccccc23)CC1,3.0%
CC(=O)NC(C)c1cc(Cl)c2cccnc2c1O (stereo not drawn),8.6%
COc1ccc(NC(=O)Nc2ccc(N3CCCC3=O)cc2)cc1OC,-10.6%
CCCn1c(Sc2nnnn2-c2ccccc2)n[nH]c1=O,-0.3%
COC(=O)C1C(=O)NCC1c1ccc(C)cc1 (stereo not drawn),10.9%
COc1cccc(Nc2ccc(C(=O)O)cc2N)c1,-14.8%
COc1cc(OC)c(NC(=O)Cc2c(C(=O)O)c(C)cn2C)cc1Cl,9.0%
COc1ccccc1/C=C/CN1CCC(CO)(Cc2ccccc2)CC1,-12.2%
NS(=O)(=O)c1ccc(CNC(=S)NC2CCCCC2)cc1,-2.4%
O=C(NC1CCCCC1)c1cc2cc(Br)ccc2o1,18.5%
CCn1c(C2CCN(Cc3ccccc3)CC2)n[nH]c1=S,-27.0%
C[C@H](CO)N1C[C@H](C)[C@@H](CN(C)C(=O)Nc2ccccc2)Oc2ccc(NS(=O)(=O)c3ccc(F)cc3)cc2C1=O,-5.4%
CN(CCOc1ccccc1)C(=O)C1CCC(=O)N(CCCN2CCCC2=O)C1 (stereo not drawn),-1.6%
COc1ccc(NC(=O)c2cnc(SC)nc2)cc1,1.3%
Cc1ccc(CCNC(=O)CCCn2nc(C)c3c(C)n(-c4ccccc4)nc3c2=O)cc1,0.4%
NC(=O)CC(NC(=O)Cc1ccc(Br)cc1)c1ccc(N2CCC(Cc3ccccc3)CC2)c([N+](=O)[O-])c1 (stereo not drawn),8.1%
Cc1ncsc1CCC(=O)N1CCCC(C(=O)c2cccc(Cl)c2)C1 (stereo not drawn),6.4%
CC(C)(C)C(=O)Cn1c(=O)n(-c2ccc(Cl)c(Cl)c2)c(=O)c2c3c(sc21)CCCC3,-3.9%
CN(CC(=O)N(CCO)Cc1ccccc1)S(=O)(=O)c1ccc2c(c1)c(=O)n(C)c(=O)n2C,12.3%
Cc1cccc(C)c1NC(=O)CSCc1cnn(-c2ccccc2)c1-n1cccc1,4.2%
CC1=NN(c2nc3ccccc3s2)C(O)(C(F)(F)F)C1 (stereo not drawn),-2.7%
COC(=O)[C@@]1(C)[C@H]2C(=O)N(Cc3ccccc3)C(=O)[C@H]2[C@H]2CN=C(SCc3ccc(Cl)cc3)N21,-0.7%
COC(=O)c1cc(NC(=O)CCc2c(C)nc3nc(C)nn3c2C)cc(C(=O)OC)c1,-6.0%
CCSc1nnc(NC(=O)CC(C)C)s1,0.2%
Clc1ccccc1C(c1nnnn1Cc1ccco1)N1CCN(Cc2ccco2)CC1 (stereo not drawn),-6.3%
Cc1ccc(CCNC(=O)C(C)n2nc(C)c3c(C)n(-c4ccc(C)cc4)nc3c2=O)cc1 (stereo not drawn),7.5%
O=[N+]([O-])c1cc(C(F)(F)F)ccc1NC1CCN(Cc2ccccc2)C1 (stereo not drawn),-13.8%
Cc1cc2c(=O)oc(-c3ccccc3Br)nc2s1,-9.8%
CC1=C(C(N)=O)C(c2cccc(C)c2)n2nc(-c3cccc(C)c3)nc2N1 (stereo not drawn),-3.0%
CC(=O)Nc1cccc(C(=O)OCC(=O)Nc2ccc(Cl)cn2)c1,-2.0%
Cn1c(=O)c2ccccc2n(CC(=O)NC2CCCCC2)c1=O,-11.6%
O=C(O/N=C1\CCCc2ccccc21)c1ccc(F)cc1,27.1%
CCc1cccc(NC(=O)Cn2c(=O)ccc3cc(S(=O)(=O)N4CCC(C)CC4)ccc32)c1,14.1%
CCOc1ccc(NS(=O)(=O)c2ccc3[nH]cc(C(=O)NCCOC)c(=O)c3c2)cc1,-2.2%&-21.0%
O=C(CSc1nc2[nH]ncc2c(=O)n1-c1ccccc1Br)NCc1ccco1,2.8%
Cc1oc2cc(O)ccc2c(=O)c1-c1cnn(-c2ccccc2)c1,0.8%
COc1cc2c(cc1Cl)C(=O)C(F)(c1ccccc1)C(=O)N2 (stereo not drawn),12.4%
Cc1ccc2c(c1C)NC(C)CC2C (stereo not drawn),-12.0%
CC1(C)Cc2[nH]c(=S)c(C#N)cc2CO1,?
CCOc1ccc(CC(=O)Nc2c(C(=O)Nc3ccccc3)oc3ccccc23)cc1OCC,1.1%
Cc1ccc(S(=O)(=O)NC(=NC(C)C(=O)O)c2ccccc2)cc1 (stereo not drawn),-0.9%

# The list goes on:
SMILES,VDR inh
COc1ccc(C(=O)c2c(N)c(-c3nc(-c4ccc5c(c4)OCO5)cs3)c3ccccn23)cc1,13.2%
NS(=O)(=O)c1ccc(CCNC(=O)c2ccc(Br)s2)cc1,-11.0%
O=C(CN1C(=O)CSc2ccc(S(=O)(=O)N3CCCCC3)cc21)NCc1ccc(F)cc1Cl,?
CCOC(=O)C1CCN(C(=O)CN(c2ccc3c(c2)OCCO3)S(C)(=O)=O)CC1,-4.3%
O=C(COC(=O)c1ccc(Cl)c(S(=O)(=O)N2CCOCC2)c1)NCc1ccco1,20.0%
Cc1ccccc1-c1nnc(CN2CCN(c3ccccn3)CC2)o1,2.4%
CC1CCCN(C(=O)c2cc3ccccc3cc2O)C1 (stereo not drawn),4.8%
O=C1CC(c2nc3ccccc3[nH]2)CN1Cc1ccccc1 (stereo not drawn),-14.3%
N#Cc1c(/N=C/c2ccc(Br)s2)sc2c1CCC2,-6.1%
CCn1c(SCC(=O)c2ccc(O)c(O)c2)nnc1-c1ccc(C)cc1,15.6%
COc1ccc(C(C)C)cc1S(=O)(=O)N1CCN(C)CC1,-9.4%
Cc1ccc(-n2c(N)cc(=O)nc2SCC(=O)N2CCN(c3ccccc3)CC2)cc1,3.3%
CC(Sc1nnc(-c2cccnc2)n1-c1ccccc1)C(=O)NCc1ccc2c(c1)OCO2 (stereo not drawn),4.9%
